# HPGD inh: inhibitors of human 15-hydroxyprostaglandin dehydrogenase (HPGD); hit rate 4.3% among 150,000; P15428; purified HPGD, NADH fluorescence kinetic, PGE2 substrate; Potency, µM, for the others: at the top dose activity change, negative = inhibition, actives largely listed as inhibitors; active = well fitted inhibition curve with a large enough effect (not every such curve was filed as active); inconclusive = small, poorly fitted or top-dose-only effect, or another doubt; inactive = no such curve, though single readings can be large or run the other way;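 note: top concentration of the series not given in the record; plate controls included wells without enzyme; inactives centre near -10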
# Target sequence (P15428 whole entry, looked up): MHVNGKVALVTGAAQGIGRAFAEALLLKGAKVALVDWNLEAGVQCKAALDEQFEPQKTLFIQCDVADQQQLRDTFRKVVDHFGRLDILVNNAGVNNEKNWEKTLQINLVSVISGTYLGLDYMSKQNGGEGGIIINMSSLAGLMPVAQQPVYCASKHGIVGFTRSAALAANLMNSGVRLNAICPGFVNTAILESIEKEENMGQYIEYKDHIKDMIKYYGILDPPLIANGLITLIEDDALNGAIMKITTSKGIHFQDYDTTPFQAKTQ
#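 NADH formation kinetics: reaction with 30 uM PGE2 and 1 mM NAD+ (final), 20 nM enzyme, Tris-HCl pH 8 with Tween 20, after 15 min compound preincubation at room temperature. Fluorescence change, last versus first of five reads.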
# * hit, by the source's call; ? = inconclusive; & = joins results of further samples. % is set by controls: 0 for no effect and ±100 for the full control effect; potency is the fitted concentration of half-maximal effect. Only part of the results is shown. The share of hits here may be higher or lower than overall.
HPGD inh,SMILES
?,CCOC(=O)C1CCCN(c2ncnc3c2cnn3-c2ccc(Cl)cc2)C1 (stereo not drawn)
?,O=C1NC(=O)C(=C2CCCCCC2)S1
-25%,Cc1cc(C(=O)COC(=O)c2ccc(CO)cc2)c(C)n1CC1COc2ccccc2O1 (stereo not drawn)
-15%,COc1cccc(N2C(=O)C3CCCN3C2c2ccc(F)cc2)c1 (stereo not drawn)
?,COc1cccc(-n2nnnc2SCC(=O)NCc2ccco2)c1
-13%,COC(=O)c1cc(Oc2ccc(C(=O)OC)cc2N)cc(C(=O)OC)c1
2%,CCOC(=O)CC(NC(=O)c1ccc(C)cc1)c1ccc(C)cc1 (stereo not drawn)
-7%,Cc1ccc(C2C(C(=O)O)c3ccccc3C(=O)N2C)c(C)c1 (stereo not drawn)
-3%,CC1=C(C(N)=O)C(c2ccccc2)n2nc(-c3cccc(C)c3)nc2N1 (stereo not drawn)
-16%,CCSc1nc(=O)n(-c2ccccc2)c(C)c1C(C)=S
?,O=C(N/N=C/c1ccc(O)c(O)c1)c1ccc(CSc2cccc3cccnc23)cc1
-11%,CSc1nnc(Cn2c(=O)sc3ccccc32)n1-c1ccccc1
?,Cc1ccc(-n2nc(C(=O)NCc3ccco3)c3c4ccccc4n(C)c3c2=O)cc1
-7%,CCCCNC(=O)CCn1c(=O)c2ccccc2n(Cc2cc(C)ccc2C)c1=O
2%,CC(=O)Nc1ccc(S(=O)(=O)N(C)CC(=O)Nc2ccccc2N2CCOCC2)cc1
1%,O=C(Cn1cc(C(F)(F)F)cc(Cl)c1=O)NCCc1ccccc1
-5%,COc1ccc(S(=O)(=O)N(C)CC(=O)NCCC2=CCCCC2)cc1C
?,CN(C)c1ccc(P(=O)(Nc2cccc(C(F)(F)F)c2)N2CCOCC2)c(NC(=O)c2cccs2)c1 (stereo not drawn)
-4%,CCCCN(CC(=O)Nc1c(C)cccc1CC)C(=O)SCC
-9%,Cc1cc(-c2n[nH]c(=S)n2Cc2ccco2)n(C)n1
-23%,COc1cc2c(cc1OC)-c1cc(N3CCCc4ccccc43)nc(=O)n1CC2
-8%,Cc1ccc(S(=O)(=O)NC(=O)Nc2ccccc2F)cc1
-24%,O=C1NC(c2ccccc2)=C(c2nc3ccccc3s2)C(c2ccccc2)N1 (stereo not drawn)
-3%,CC(C)c1nc2n[nH]c(N)c2c2c1CSC(C)(C)C2
-13%,O=C(C1Cc2ccccc2CN1S(=O)(=O)c1ccc(F)cc1)N1CCCCCC1 (stereo not drawn)
?,COc1ccc2c(-c3ccccc3)cc3nnnn3c2c1
0%,O=C(N1CCN(CCO)CC1)N1c2ccccc2C=Cc2ccccc21
-7%,Cc1cccc(NC(=O)C(C)OC(=O)c2ccccc2NS(=O)(=O)c2cc(C)c(C)c([N+](=O)[O-])c2)c1 (stereo not drawn)
-16%,O=C(N/C=N/OCc1ccc(Cl)cc1Cl)NOCc1c(Cl)cccc1Cl
-9%,CCOC(=O)CSC1=C(C#N)C(c2ccccc2OCC)C(C#N)C(=O)N1 (stereo not drawn)
25µM*,Oc1c(C=Nc2cccc3nsnc23)ccc2ccccc12
-27%,Cc1nn(C)cc1/C=C1\CCC/C(=C\c2cn(C)nc2C)C1=O
-9%,COc1cc(/C=N\NC(=O)CNC(=O)c2cccc([N+](=O)[O-])c2)ccc1O
-3%,COc1ccc(S(=O)(=O)N(CCN2CCOCC2)Cc2cc(OC)ccc2OC)cc1
-1%,CC(C)(C)C(=O)OCOC(=O)[C@@H]1N2C(=O)[C@@H](NC(=O)[C@H](N)c3ccccc3)[C@H]2SC1(C)C
-12%,O=C(Nc1ccc(Cl)cc1)Nc1nnc(SCc2ccccc2)s1
-23%,O=C(Nc1c(F)cccc1F)c1cnc(N2CCN(c3ccccn3)CC2)c2ccccc12
?,N#Cc1ccc(Oc2ccc(-c3nc4ccccc4nc3-c3ccccc3)cc2)cc1C#N
-4%,CCN=C1SC(C(=O)Nc2cccc(C)c2)CC(=O)N1CC (stereo not drawn)
-18%,Cc1ccc(C(=O)NN2C(=O)C3C4c5ccccc5C(c5ccccc54)[C@@H]3C2=O)cc1 (stereo partly drawn)

# Entries above that bear a hit mark in HPGD inh:
HPGD inh,SMILES
25µM*,Oc1c(C=Nc2cccc3nsnc23)ccc2ccccc12

# Continued:
HPGD inh,SMILES
-15%,CC1Cc2ccccc2N1C(=O)c1nn(C)cc1Br (stereo not drawn)
-3%,CCOc1ccc(CCNC(=O)C2CCN(c3nn4c(=O)cc(C)nc4s3)CC2)cc1
-4%,O=C1CC(C(=O)Nc2ccccc2)C2(CCCC2)O1 (stereo not drawn)
28µM*,CCC1(C)Cc2c(C#N)c(N)sc(=S)c2CO1 (stereo not drawn)
-7%,N/C(=N\OC(=O)CC1CCCCC1)c1ccc([N+](=O)[O-])cc1
2%,CC(C)[C@H](NC(=O)NCCc1ccc(F)cc1)C(=O)O
-12%,COc1ccc(C(=O)NC2CC(C)(C)Cc3occc32)cc1 (stereo not drawn)
0%,Cc1ccc(NS(=O)(=O)c2ccc(C)c(NC(=O)COc3ccccc3)c2)c(C)c1
-20%,COC(=O)c1ccc(Oc2c(C)oc3cc(OCc4cnn(-c5ccccc5)c4)ccc3c2=O)cc1
-10%,CCC(=O)NCCc1nc2ccccc2n1CC(=O)c1ccccc1
5%,CCOc1ccc(NC(=O)C2CC(=O)N(C(C)C)C2)cc1 (stereo not drawn)
-1%,ClCCCl
-14%,CCOc1ccccc1C1CC(=O)NC(SCC)=C1C#N (stereo not drawn)
4%,COC(=O)c1ncn(C2OC(COC(C)=O)C(OC(C)=O)C2OC(C)=O)n1 (stereo not drawn)
-9%,N#CC(=C1SC=CS1)c1nc(-c2ccccc2)cs1
-3%,NC(=O)C1CCN(Cc2nnnn2Cc2ccco2)CC1
-15%,Cn1c(=O)c2c(nc(Br)n2Cc2c(F)cccc2Cl)n(C)c1=O
-4%,COc1ccc(C)cc1NC(=O)c1ccc(NC(=O)CC2SC(N3CCCC3)=NC2=O)cc1 (stereo not drawn)
-22%,COc1cccc(CNC(=O)CCCCCn2c(=S)[nH]c3ccc(N4CCOCC4)cc3c2=O)c1
-12%&5%,C/C=C1\C(=O)CC2C3CCC4=CC(=O)CC[C@]4(C)C3CC[C@]12C (stereo partly drawn)

# As entered above.
# HPGD inh, COC(=O)c1ncn(C2OC(COC(C)=O)C(OC(C)=O)C2OC(C)=O)n1 (stereo not drawn) → 4%
# HPGD inh, COc1ccc(C)cc1NC(=O)c1ccc(NC(=O)CC2SC(N3CCCC3)=NC2=O)cc1 (stereo not drawn) → -4%
# HPGD inh, ClCCCl → -1%

# Next structures:
HPGD inh,SMILES
0%,CC(C)CC(c1nnnn1Cc1ccccc1)N1CCN(C(=O)c2ccco2)CC1 (stereo not drawn)
-1%,O=c1cc(-c2ccccc2)[nH][nH]1
-14%,Cc1cc(N2C(=O)C3C4C=CC(C4)C3C2=O)no1 (stereo not drawn)
-13%,O=C(CN1C(=O)c2ccccc2C1=O)NCCc1c[nH]c2ccccc12
?,Cc1cc2n(n1)C(c1cn(-c3ccccc3)nc1C)Nc1c(C)cccc1-2 (stereo not drawn)
-8%,CCc1cc(=O)oc2cc(C)c(CN3CCCC(C)C3)c(O)c12 (stereo not drawn)
-19%,Brc1ccc(-c2nnc3sc(CNCc4ccc5c(c4)OCO5)cn23)cc1
-12%&-10%&-15%&-7%&-27%,COc1c2occc2cc2ccc(=O)oc12
-12%,Cc1ccc(/C=c2\sc3n(c2=O)CN(c2cccc(Br)c2)CN=3)o1
?,CCOC(=O)C(=CNc1cc(C)nn1-c1ccc(Cl)cc1)C(=O)OCC
-13%,O=c1[nH]c2ccc(Br)cc2c(-c2ccccc2)c1CN1CCOCC1
-8%,O=C(NCCc1ccccc1)C1CCN(S(=O)(=O)c2cccc3nonc23)CC1
20µM*,COCCCn1c(SCc2nnc(-c3ccc(OC)c(OC)c3)o2)nc2ccccc2c1=O
-15%,O=c1[nH][nH]c(-c2ccccc2O)c1C(C[N+](=O)[O-])c1cccc(Cl)c1 (stereo not drawn)
-10%,O=C1CC(c2cccc(Cl)c2)CC(O)=C1C=Nc1ccccc1 (stereo not drawn)
-3%,Cc1ccc(C(=C2C3C=CC2C2C(=O)NC(=O)C32)c2ccc(C)cc2)cc1 (stereo not drawn)
-14%,Cc1ccc(CCCC(=O)O)cc1C
25µM*,CN(C)c1ccc(NC(=S)c2ccccn2)cc1
?,Cc1c(N=Cc2cc(Br)cc(Br)c2O)cccc1C(=O)O
?,C/C(CCc1oc2ccccc2c1-c1ccc(C)o1)=N/O

# Given as labelled records: part of the list above
Structure: Brc1ccc(-c2nnc3sc(CNCc4ccc5c(c4)OCO5)cn23)cc1
  HPGD inh: -19%
Structure: CCc1cc(=O)oc2cc(C)c(CN3CCCC(C)C3)c(O)c12 (stereo not drawn)
  HPGD inh: -8%
Structure: COCCCn1c(SCc2nnc(-c3ccc(OC)c(OC)c3)o2)nc2ccccc2c1=O
  HPGD inh: 20µM*
Structure: Cc1ccc(/C=c2\sc3n(c2=O)CN(c2cccc(Br)c2)CN=3)o1
  HPGD inh: -12%

# Next section
HPGD inh,SMILES
-3%,CCCCN1C2=C(C(=O)CCC2)C(c2ccc(Cl)c(Cl)c2)C2=C1c1ccccc1C2=O (stereo not drawn)
-10%,COc1ccc(CCNC(=O)c2nnn(CC(=O)Nc3ccccc3)c2N)cc1OC
?,COc1ccc(-c2cn3cccnc3n2)cc1F
-4%,COc1ccc(C2(CN(C(C)=O)C(C)=O)CCCC2)cc1OC
?,CC1(C)CCCN(C(=O)c2coc(=O)c(Br)c2)C1
-3%,CCn1c(Cc2cccs2)nnc1SCC(=O)Nc1ccc(OC)c(OC)c1
-6%,CC1CN(S(=O)(=O)c2cccc(C(=O)OCC(=O)Nc3ccc4c(c3)OCO4)c2)CC(C)O1 (stereo not drawn)
-12%,CC(C)NS(=O)(=O)c1ccc(NC(=O)C2CCCCC2)cc1
-11%,COC(=O)c1[nH]c(C)c(/C(O)=C2\C(=O)C(=O)N(CCN(C)C)C2c2cc(OC)ccc2OC)c1C (stereo not drawn)
-8%,O=C(OCn1ncc(Cl)c(Cl)c1=O)c1ccc(C(F)(F)F)cc1
-11%,NCCNCC1CCNCC1
-11%,COCCCn1c(SCC(=O)OC2CCCCC2)nnc1-c1ccco1
-19%,COc1cc(NS(=O)(=O)c2ccc(NC(=S)NC(=O)C3CCCC3)cc2)nc(OC)n1
-8%,CCC(=O)Nc1ccc(C(=O)n2ccc(C)n2)cc1
-14%,COc1cc(C)c(Cl)cc1S(=O)(=O)N(C)C
?,COc1cc(-c2cc(C(=O)Nc3ccc(S(=O)(=O)NCc4ccco4)cc3)c3ccccc3n2)cc(OC)c1OC
0%,COc1cc(CNCCO)ccc1OCC(=O)Nc1ccc(Br)cc1
-9%,COc1cc(N2CCCC2)c(OC)cc1/C=C(/C#N)c1ccc(Br)cc1
-11%,N#Cc1ccccc1Cn1c(-c2cscn2)nc2ccccc21
1%,Cc1nn(C(=O)N2CCOCC2)c(C)c1C
1%,O=C(CN(Cc1ccccc1)S(=O)(=O)c1ccccc1)NC1CC1
-16%,CCCc1cc(Nc2cccc(OC)c2)n2ncnc2n1
4µM*,O=C(O)CSc1c2c(nc3cc(C(=O)N4CCOCC4)ccc13)CCCC2
-16%,c1cc(C(c2nnnn2C2CCCC2)N2CCOCC2)ccn1 (stereo not drawn)
-10%,CCOC(=O)c1sc(N(Cc2ccccc2)C(=O)CN2C(=O)CN(C)C2=O)nc1C
?,CN(Cc1ccco1)c1ncnc2ccc(-c3ccc4c(c3)OCO4)cc12
-15%,COc1cc(N=Cc2c(O)[nH]c3ccccc23)cc(OC)c1OC
1%,CS(=O)(=O)N1CCC[C@@]2(CCN(Cc3ccc(C#N)cc3)C2)C1
-9%,CC(O)CNCCNCc1c(OCc2ccccc2)ccc2ccccc12 (stereo not drawn)
18µM*,CC(C)Cn1c(Br)nc2c1c(=O)n(CCC#N)c(=O)n2C
-20%,CCC(C)N(C(=O)COC(=O)c1cn(CC)c2nc(C)ccc2c1=O)C1CCS(=O)(=O)C1 (stereo not drawn)
-16%,CCC/C=C(\CCC)C(NS(=O)(=O)c1ccccc1)c1ccc(C(F)(F)F)cc1 (stereo not drawn)
-9%,CCOc1c(Cl)cc(/C=N/NC(N)=S)cc1OC
-12%,Cc1ccc(C(=O)NCc2ccco2)cc1S(=O)(=O)Nc1cccc(Cl)c1
-2%,O=C1CN(c2nc3ccccc3n3cnnc23)CC(=O)N1CCc1ccccc1
-8%,O=C(CSc1ccccn1)N/N=C/c1ccccc1[N+](=O)[O-]
-11%,CCOC(=O)N1CCN(S(=O)(=O)c2ccc(OC)c(Cl)c2)CC1
-6%,COc1cccc(NC(=O)c2ccc3c(c2)N(CC(=O)N2CCCCC2)C(=O)C(C)(C)O3)c1
-5%,CC(=O)N1CCN(c2ccc(NC(=O)c3ccc(N4CCCC4)c([N+](=O)[O-])c3)cc2Cl)CC1

# No new results follow: entries from further up.
HPGD inh,SMILES
?,CCOC(=O)C1CCCN(c2ncnc3c2cnn3-c2ccc(Cl)cc2)C1 (stereo not drawn)
?,O=C1NC(=O)C(=C2CCCCCC2)S1
-25%,Cc1cc(C(=O)COC(=O)c2ccc(CO)cc2)c(C)n1CC1COc2ccccc2O1 (stereo not drawn)
-15%,COc1cccc(N2C(=O)C3CCCN3C2c2ccc(F)cc2)c1 (stereo not drawn)
?,COc1cccc(-n2nnnc2SCC(=O)NCc2ccco2)c1
